MBD2 inh = blocks human MBD2 binding to methylated DNA | 370,000 compounds, 0.31% hits | TR-FRET, MBD2 binding to methylated oligonucleotide | Q9UBB5 | inhibition, % at 4.4 µM; in the data active = inhibition above about 13%
Target sequence (Q9UBB5 whole entry, looked up): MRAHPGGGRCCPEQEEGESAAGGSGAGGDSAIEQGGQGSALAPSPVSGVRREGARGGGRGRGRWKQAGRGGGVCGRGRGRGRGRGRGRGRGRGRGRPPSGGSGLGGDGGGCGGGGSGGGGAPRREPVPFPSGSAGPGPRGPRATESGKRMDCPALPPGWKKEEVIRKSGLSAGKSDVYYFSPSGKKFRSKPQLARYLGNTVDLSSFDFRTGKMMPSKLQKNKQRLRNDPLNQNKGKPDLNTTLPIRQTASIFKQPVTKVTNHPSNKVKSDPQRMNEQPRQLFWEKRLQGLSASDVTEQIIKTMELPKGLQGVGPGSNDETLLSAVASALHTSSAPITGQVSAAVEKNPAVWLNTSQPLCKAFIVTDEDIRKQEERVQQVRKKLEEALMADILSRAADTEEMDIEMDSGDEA
TCR CD3 inh = blocks the human TCR-CD3 interaction. TAMRA-labeled TCR probe fluorescence, biochemical. 360,000 compounds, 0.37% hits. inhibition, % at 9.4 µM. AID 651800; in the data active = inhibition above about 19%;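 note: recombinant mutant TCR 2C K166C tagged with TAMRA read by polarization; 0% = receptor in buffer alone and 100% = receptor with positive control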
UHRF1 MBD2 ctr = UHRF1 methyl-DNA binding inhibition; Q96T88; UHRF1 binding to methylated oligo, TR-FRET; inhibition, % at 4.4 µM; 370,000 compounds, 0.75% hits; AID 687016; in the data active = inhibition above about 21%;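 note: UHRF1 SRA domain binding a hemimethylated CpG hairpin DNA probe; 0% = median of test compound wells and 100% = reference inhibitor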
PG9 Ab binder = PG9 antibody binding by small molecule; TR-FRET gp120-PG9 antibody binding; inhibition, % at 6.7 µM; 360,000 compounds, 0.43% hits; in the data active = inhibition above about 8.5%
NR1D1 modulator = modulators of human Rev-erb alpha DNA binding; P20393; activity, % at 10 µM; 370,000 compounds, 0.79% hits; Rev-erbα–FITC-DNA binding, fluorescence polarization, 90 min;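 active = activity above about 14%, limit read from the data; passing the limit was not always enough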;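 note: 0% = DMSO wells with 35 nM protein and 100% = DMSO wells with 750 nM protein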
rCAG binder = binds r(CAG) RNA repeats; inhibition, % at 3 µM; r(CAG) RNA repeat, TO-PRO-1 dye displacement fluorescence; 370,000 compounds, 1.3% hits; AID 651821;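 active = inhibition above the plate cutoff, the mean of all test compounds on that plate plus 3 SD, cut at about 35% in these data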;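 note: 0% = DMSO alone and 100% = 100 µM mitoxantrone as full dye displacement; higher means more dye released from RNA so lower well fluorescence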
PRMT1 inh = PRMT1 (human) inhibition, primary screen. Q99873. recombinant PRMT1, activity-based probe fluorescence polarization. inhibition, % at 2.79 µM. 370,000 compounds, 1.3% hits. AID 652257;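 active = inhibition above about 21% made by adding two undisclosed values, limit read from the data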
Target sequence (Q99873 whole entry, looked up): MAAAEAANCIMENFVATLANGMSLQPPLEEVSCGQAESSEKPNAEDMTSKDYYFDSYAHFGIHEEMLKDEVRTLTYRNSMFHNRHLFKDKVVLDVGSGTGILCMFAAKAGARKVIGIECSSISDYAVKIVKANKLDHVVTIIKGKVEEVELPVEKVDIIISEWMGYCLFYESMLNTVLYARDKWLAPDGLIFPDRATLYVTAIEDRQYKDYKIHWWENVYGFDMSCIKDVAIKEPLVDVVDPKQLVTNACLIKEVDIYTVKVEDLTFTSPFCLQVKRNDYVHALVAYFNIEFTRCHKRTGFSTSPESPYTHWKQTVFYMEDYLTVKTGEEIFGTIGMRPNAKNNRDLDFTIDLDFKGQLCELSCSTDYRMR
mABHD4 FP = inhibits mouse alpha/beta hydrolase domain 4 | Q8VD66 | purified mABHD4, FP-Rh probe fluorescence polarization | inhibition, % at 8.92 µM | 370,000 compounds, 0.54% hits | AID 720543;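 active = inhibition exceeding the mean over every tested compound plus 3 SD, cut at about 30% in these data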;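 note: 0% = plate median of compound wells and 100% = S159A mutant with DMSO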
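Doses – 8.92 µM, single dose · Material – wild-type mouse ABHD4 protein · Replication – single well per compound (singlicate) · Measure – percent inhibition of probe binding, normalized to plate controls · Schedule – 45 min compound pre-incubation plus 60 min probe step, 25 °C · Detection – fluorescence polarization with parallel and perpendicular emission, 525/598 nm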
LEDGF integ inh = blocks HIV-1 LEDGF/p75-dependent DNA integration. TR-FRET IN-LEDGF/p75 DNA integration, Eu/Cy5. inhibition, % at 3.7 µM. 370,000 compounds, 0.64% hits. AID 743269;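 active = inhibition above the screen-wide mean plus 3 SD, cut at about 13% in these data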;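 note: signal is the Cy5 over europium emission ratio at 671 and 618 nm; 0% = plate median of compound wells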
* marks the source's active call; other numbers are inactive results. The list is partial, so the mix of outcomes need not match the whole.

cpd | molecule | MBD2 inh | TCR CD3 inh | UHRF1 MBD2 ctr | PG9 Ab binder | NR1D1 modulator | rCAG binder | PRMT1 inh | mABHD4 FP | LEDGF integ inh
1 | Cc1ccc(CSC2=NCCN2C(=O)c2ccc(S(=O)(=O)N(C)C)cc2)cc1 | -3 | -2 | -5 | -0.9 | 0 | -4 | -3 | -1 | 2
2 | NNc1nc2sc3c(c2c(=O)n1Cc1ccccc1)CCC3 | 4 | -5 | 0 | -2.5 | -7 | 16 | 1 | 14 | 1
3 | CC1(C)COC(c2cccc(C3=NC(C)(C)CO3)n2)=N1 | -1 | -1 | 3 | -0.9 | 7 | 2 | -2 | 7 | -4
4 | CN1CCc2c(sc3nc(NN)n(Cc4ccccc4)c(=O)c23)C1 | 0 | 5 | -2 | -3.9 | -2 | 13 | 0 | 19 | 7
5 | Cc1ccc(Sc2ccc(C(=O)N(C)C)cc2[N+](=O)[O-])cc1 | 6 | 0 | 2 | 2.6 | 8 | -3 | 5 | -9 | -6
6 | Cc1ccccc1OCc1nc(-c2ccc(NC(=O)c3ccc4c(c3)OCO4)cc2)no1 | 6 | 4 | 13 | 4.5 | 6 | -1 | -2 | 3 | 3
7 | Clc1ccc2oc3c(Cl)ncnc3c2c1 | 1 | 0 | -3 | -1.5 | -10 | -1 | -1 | 0 | 1
8 | CCN(CC)C(=O)C1=C(C)Nc2nnnn2C1c1cccnc1 (stereo not drawn) | 1 | 5 | 1 | 0.4 | -1 | 2 | 2 | 1 | -2
9 | C=C(C)C1CC=C(C)/C(=N\NC(=O)CNc2cccc3ccccc23)C1 (stereo not drawn) | -2 | 4 | -4 | -3.2 | -2 | 8 | 5 | 14 | 1
10 | C=CCn1c(SCC(=O)Nc2cccc(C(=O)OC)c2)nnc1C(C)NC(=O)c1cccs1 (stereo not drawn) | 1 | 2 | -2 | 0.4 | -2 | -2 | 0 | 0 | -4
11 | O=C(NCCNC(=O)c1ccccc1Cl)c1ccco1 | -3 | -6 | 2 | 1.9 | 2 | 4 | 0 | 4 | -7
12 | CCOC(=O)c1c(C)[nH]c(C)c1C(=O)COC(=O)c1ccc(Cl)nc1 | 0 | 1 | -1 | 0.6 | -7 | 2 | -2 | -2 | 2
13 | COc1ccc(N/N=C(/C(N)=O)C2=NC(C)(C)Cc3ccccc32)cc1 | 3 | -5 | 4 | -0.6 | 3 | 2 | 3 | 14 | 0
14 | C=CCc1cccc(/C=C/c2cc(=O)c3ccccc3[nH]2)c1O | 3 | 4 | 1 | -2.8 | 3 | 6 | 0 | 3 | -1
15 | COc1ccc(S(=O)(=O)n2nc(OC(=O)c3ccncc3)cc2N)cc1 | -7 | -14 | -1 | 0.5 | 1 | 2 | 1 | 3 | 0
16 | CCOc1ccccc1OCCNC1CCCC1 | 3 | 8 | 0 | -0.4 | 0 | -4 | 1 | 5 | 1
17 | COc1ccc2cc(C#N)c(N3CCOCC3)nc2c1 | 4 | 4 | -4 | 1.5 | -7 | 3 | -1 | 2 | -11
18 | C=C(C)C1CC=C(C)/C(=N/NC(=O)CCCNc2cccc(C)c2)C1 (stereo not drawn) | -3 | -5 | 7 | -3.5 | -4 | -9 | 4 | 4 | -6
19 | Cc1nn(-c2ccccc2)c2[nH]c(=O)c(CNCc3ccc4c(c3)OCO4)cc12 | 1 | 4 | 7 | -3.8 | -2 | 5 | -3 | -6 | -2
20 | Cc1ccc(CNC(=O)C(C)OC(=O)c2cccs2)cc1 (stereo not drawn) | 3 | 1 | 1 | -2.6 | -8 | -2 | 0 | -8 | 0
21 | Cc1cc(C)c(NC(=O)C2CCCN2CCO)c(C)c1 (stereo not drawn) | -1 | 14 | 0 | 1.1 | -3 | -1 | -1 | 1 | 2
22 | Cc1ccc(C2C3=C(CC(C)(C)CC3=O)N=C3c4ccccc4C(=O)C32)cc1 (stereo not drawn) | -13 | -4 | -8 | -2.9 | 5 | 6 | 14 | 59* | 3
23 | CSc1nc2c(ccc3ccccc32)o1 | 0 | -6 | -1 | -0.7 | 0 | 0 | -2 | 4 | -1
24 | COc1cccc(OC)c1C1=NC(C)(C)CO1 | 2 | -2 | -4 | -1.6 | 0 | 1 | -3 | -8 | 3
25 | CN(Cc1c(F)cccc1Cl)C(=O)c1cnc2ccccc2n1 | 0 | 0 | 1 | -3.5 | -1 | -5 | 0 | 3 | 2
26 | COc1ccccc1-c1ccc(=O)n(CC(=O)NCc2ccco2)n1 | 3 | -9 | 6 | -1.9 | 7 | 2 | 2 | -2 | -2
27 | O=C(CSc1ccc2c(c1)OCCO2)NCC1CCCO1 (stereo not drawn) | 2 | -1 | 1 | -0.6 | 2 | -3 | 12 | -1 | -4
28 | C/C(=C\C(=O)c1ccc(Br)cc1)Nc1ccc(Cl)cc1 | 9 | 2 | 10 | -1.3 | -1 | -5 | 5 | -8 | -5
29 | CCCc1cc(=O)oc2c(C)c(OCc3nn[nH]n3)ccc12 | 0 | -8 | 4 | 0.6 | -3 | 2 | 4 | 1 | 4
30 | O=C(N/N=C/c1ccncc1)c1ccc(NS(=O)(=O)c2cccs2)cc1 | -3 | -3 | -1 | 0.5 | 0 | 3 | 3 | 1 | 3
31 | O=C(O)CCSc1ccc([N+](=O)[O-])cc1[N+](=O)[O-] | -9 | -4 | -4 | -1.4 | -2 | 2 | 9 | 1 | -4
32 | CN1CCNC(=O)C1CC(=O)NCCC1=CCCCC1 (stereo not drawn) | -8 | 1 | -3 | 0.9 | -5 | -1 | 0 | -1 | -1
33 | O=C(NC1CC1)c1cc(F)c(F)cc1Cl | -6 | 3 | -2 | 0.0 | 4 | 8 | -2 | -1 | -1
34 | CC(C)C[C@H](NC(=O)c1nc[nH]c1C(=O)NC1CCN(C(=O)OC(C)(C)C)CC1)C(=O)OC(C)(C)C | -3 | -3 | -1 | -0.7 | -5 | -3 | 2 | -8 | 2
35 | CC(C)Oc1ccc(CN2CCC(n3nccc3NC(=O)c3cccnc3)CC2)cc1 | 3 | 4 | 0 | -2.3 | -1 | -4 | 0 | 2 | -3
36 | CC(=O)Nc1ccc(S(=O)(=O)N[C@@H](C)C(=O)OCC(=O)c2ccc[nH]2)cc1 | -2 | 6 | -1 | -2.2 | -8 | 3 | -5 | 6 | 0
37 | C=C(C)C1CC=C(C)/C(=N\NC(=O)CNc2ccccc2OC)C1 (stereo not drawn) | 6 | -1 | 1 | 0.8 | 28* | -4 | 3 | 5 | -2
38 | CC1CCN(c2ccc(C(=O)O)cc2N)CC1 | 7 | -3 | 3 | 2.2 | 0 | 18 | 4 | 20 | 2
39 | COc1cc(CO)cc(-c2cc(CO)cc(OC)c2OC)c1OC | 0 | 6 | 0 | 0.8 | 1 | 2 | -3 | -2 | 0
40 | COc1ccc(CCC(=O)NCc2cccc(C(F)(F)F)c2)cc1 | -1 | -3 | 1 | 0.5 | -3 | -7 | 0 | -2 | -1
41 | CC(C)(C)C(=O)Oc1cc(N)n(S(=O)(=O)c2ccc(F)cc2)n1 | -7 | 12 | -1 | -0.5 | 1 | 0 | 1 | 3 | -2
42 | COc1ccc(/C=C/C(=O)NC(=S)N2CCSCC2)cc1 | -3 | 1 | 0 | 1.2 | 3 | 1 | 5 | 2 | 4
43 | CC(C)CCn1nnnc1CN1CCN(c2ccccc2)CC1 | 2 | -3 | -1 | -0.4 | 4 | -11 | 5 | 2 | -5
44 | Cc1nn(C)c(C(=O)Nc2cccc(Nc3ccccc3)c2)c1[N+](=O)[O-] | 6 | 1 | 0 | -4.2 | 0 | 6 | -6 | 7 | 2
45 | CCOC(=O)c1sc(NC(=O)CC)c(C#N)c1C | -1 | -10 | -1 | 2.6 | 13 | -2 | 6 | 5 | -8
46 | COc1ccccc1C(=O)Oc1ccccc1C(=O)Nc1ccccc1 | -1 | 3 | 1 | -0.6 | 1 | -2 | -6 | 0 | 1
47 | CC1CN(C(=O)C2CC(=O)N(c3ccc(Cl)cc3)C2)CC(C)O1 (stereo not drawn) | -6 | 7 | -2 | 1.5 | -3 | -1 | -4 | 4 | 3
48 | Cc1cccc(Oc2coc3cc(OC(=O)c4cc5ccccc5oc4=O)ccc3c2=O)c1 | -6 | 2 | -1 | 1.1 | 1 | 4 | 2 | -4 | -1
49 | CC1(OC(=O)C2CCCC2)C(=O)C=C2C=C(c3ccsc3)N(C3CCCC3)C=C2C1=O (stereo not drawn) | 1 | 8 | 0 | -1.5 | 0 | 6 | 6 | 18 | 0
50 | CCOC(=O)c1c(N)nn(C(C)=O)c1-c1ccccc1 | 1 | 9 | 0 | -1.2 | 5 | 0 | -1 | -2 | 2
51 | O=C(NCCNC(=O)c1ccccc1F)c1ccco1 | -1 | 9 | 1 | -2.1 | 2 | 1 | -3 | 5 | -1
52 | COC(=O)C1=CN(c2cccc(C(F)(F)F)c2)C=C(C(=O)OC)C1c1ccc(O)c(OC)c1 | -5 | 7 | -3 | -0.3 | -3 | 1 | -5 | -2 | -1
53 | CCCCC1=CC2=CC(=O)C(C)(OC(=O)CC)C(=O)C2=CN1CCCOC(C)C (stereo not drawn) | -2 | 10 | -6 | -1.7 | -3 | -2 | 8 | 6 | 0
54 | NNC(=O)c1ccccc1-n1cccc1 | 5 | 0 | -1 | 0.1 | -3 | 0 | 3 | 4 | -2
55 | CN(C(=O)COC(=O)c1cccs1)c1ccccc1 | -1 | 5 | 1 | 0.7 | -3 | 1 | 1 | 2 | 5
56 | COC(=O)c1ccc(CNC(=O)COC(=O)/C=C/c2cccc(OC)c2)cc1 | 1 | 4 | 0 | -0.8 | -6 | -1 | -4 | -4 | 3
57 | COc1cccc2cc(C(=O)CS(=O)(=O)c3ccc(Cl)cc3)c(=O)oc12 | -2 | -2 | 2 | -3.0 | 2 | 47* | 6 | 24 | 2
58 | O=C(Nc1ccnn1C1CCN(Cc2ccccc2OC(F)F)CC1)c1cccc(F)c1 | -3 | 12 | 1 | 1.0 | 4 | -6 | -1 | 7 | -2
59 | CC(=O)c1ccc(Sc2ccccc2)c([N+](=O)[O-])c1 | 1 | -3 | 2 | -2.8 | 6 | 1 | -4 | -5 | 3
60 | O=C(COc1ccc(Cl)cc1)Nc1ncc([N+](=O)[O-])s1 | -3 | -7 | 2 | 0.6 | 7 | 19 | -1 | -9 | 5

The final two entries of the part above lead into the next:
cpd | molecule | MBD2 inh | TCR CD3 inh | UHRF1 MBD2 ctr | PG9 Ab binder | NR1D1 modulator | rCAG binder | PRMT1 inh | mABHD4 FP | LEDGF integ inh
59 | CC(=O)c1ccc(Sc2ccccc2)c([N+](=O)[O-])c1 | 1 | -3 | 2 | -2.8 | 6 | 1 | -4 | -5 | 3
60 | O=C(COc1ccc(Cl)cc1)Nc1ncc([N+](=O)[O-])s1 | -3 | -7 | 2 | 0.6 | 7 | 19 | -1 | -9 | 5
61 | Cn1c(-c2ccc(C#N)cc2)c(C#Cc2ccccc2)c2ccccc21 | 2 | -9 | 1 | 5.5 | -1 | 9 | 5 | 14 | -5
62 | CCCc1nc2sc3c(c2c(=O)n1N)CCC3 | 4 | 5 | 1 | 0.0 | -6 | -1 | 1 | 3 | 2
63 | O=C(CSc1ccc2c(c1)OCCO2)Nc1ccc(Cl)cn1 | -1 | 1 | 3 | 1.1 | 3 | -5 | 6 | -1 | -4
64 | COc1ccc(/C=C2/Sc3ccc(C(=O)N4CCc5ccccc5C4)cc3NC2=O)cc1 | 0 | 6 | -1 | -4.2 | -12 | 7 | 2 | 14 | 5
65 | O=C(CSc1n[nH]c(-c2cccs2)n1)NCCc1ccccc1 | 0 | 2 | 0 | -2.5 | -2 | 0 | -2 | 2 | 4
66 | C/C(=N\NC(=S)Nc1ccc(F)cc1)C1CC1 | -3 | 2 | -2 | -0.8 | 3 | 1 | 1 | -2 | -1
67 | Cc1cccc(C(=O)NNC(=O)c2ccccc2-n2cccc2)c1 | -4 | 3 | 0 | -2.2 | 4 | 0 | -1 | 2 | 6
